High-throughput results: PubChem, Fisher Drug Discovery Resource Center
NPYLR7 agonist – activates Aedes aegypti NPYLR7 receptor. HEK293T NPYLR7/Galpha15, GCaMP6s calcium fluorescence. activation, % at 10 µM. 0.15% of 270,000 active. AID 1259423; in the data active = activation above about 40%;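 note: 0% = vehicle and 100% = reference agonist at the receptor; some compounds past the cut are filed as inactive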
NPYLR7 agonist max-min – recorded beside NPYLR7 agonist, whose call it bears; activation, %; measured here: Max-Min RFU normalised activation; some inactives read as strong as hits;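 span of the calcium signal over five minutes; 0% = vehicle and 100% = native peptide agonist; compound fluorescence can raise it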
* marks the source's active call; other numbers are inactive results; i = inactive.

Below each compound: NPYLR7 agonist, NPYLR7 agonist max-min
- COc1cc(C=CC(=O)c2ccc(F)cc2)cc2c1OCCO2
 : 1, 3
- CCSc1nc(N2CCOCC2)c2cnn(CCNC(=O)Cc3ccc(F)cc3)c2n1
 : 2, 0
- Cc1ccc(C(=O)NC(C)(C)C#N)cc1Br
 : 5, 0
- N#CC(C=Nc1ccc2c(c1)OCO2)c1nc2ccccc2s1 (stereo not drawn)
 : 1, -3
- CC(=O)Nc1ccc(CN2C(=O)C(C)ON=C2c2ccc3c(c2)CCO3)cc1 (stereo not drawn)
 : 5, 3
- O=[N+]([O-])c1cccc(C2c3cccn3CCCN2Cc2cccs2)c1 (stereo not drawn)
 : 13, 14
- CC(=O)N1CCN(C(=O)CC2CSc3nc(C)cc(=O)n32)CC1 (stereo not drawn)
 : -5, -6
- COCCCNC(=O)c1ccc(CSc2nc(Cl)cc(N3CCC(Cc4ccccc4)CC3)n2)cc1
 : -3, 0
- Cc1cc(C)cc(COc2coc(CN3CCN(S(=O)(=O)c4cc(F)cc(F)c4)CC3)cc2=O)c1
 : 0, -1
- COc1cccc(OC)c1-c1ccc(-n2cncc2C(=O)NCc2cccc(I)c2)cc1
 : 23, 8
- CN1C(=O)COc2ccc(NCC(=O)Nc3cccc(Cl)c3)cc21
 : -6, -7
- Cc1cc(C(=O)Nc2cc(F)cc(F)c2)on1
 : 3, 1
- CN1CCN(S(=O)(=O)c2ccc(-c3cnc(N)c(C(=O)Nc4cccnc4)n3)cc2)CC1
 : 8, 3
- C#CCN(CC=C)C(=O)C1CCC(=O)N(Cc2cccc(C(F)(F)F)c2)C1 (stereo not drawn)
 : 2, -2
- COC1CN(C(=O)Nc2ccccc2)CCC(=O)N(C)c2ccccc21 (stereo not drawn)
 : 2, 14

Molecules above that contain four or more nitrogen atoms:
Below each compound: NPYLR7 agonist, NPYLR7 agonist max-min
- CCSc1nc(N2CCOCC2)c2cnn(CCNC(=O)Cc3ccc(F)cc3)c2n1
 : 2, 0
- CC(=O)N1CCN(C(=O)CC2CSc3nc(C)cc(=O)n32)CC1 (stereo not drawn)
 : -5, -6
- COCCCNC(=O)c1ccc(CSc2nc(Cl)cc(N3CCC(Cc4ccccc4)CC3)n2)cc1
 : -3, 0
- CN1CCN(S(=O)(=O)c2ccc(-c3cnc(N)c(C(=O)Nc4cccnc4)n3)cc2)CC1
 : 8, 3

Reprinted from the results shown for reference:
Below each compound: NPYLR7 agonist, NPYLR7 agonist max-min
- Cc1ccc(C(=O)NC(C)(C)C#N)cc1Br
 : 5, 0
- N#CC(C=Nc1ccc2c(c1)OCO2)c1nc2ccccc2s1 (stereo not drawn)
 : 1, -3
- CC(=O)Nc1ccc(CN2C(=O)C(C)ON=C2c2ccc3c(c2)CCO3)cc1 (stereo not drawn)
 : 5, 3
- O=[N+]([O-])c1cccc(C2c3cccn3CCCN2Cc2cccs2)c1 (stereo not drawn)
 : 13, 14
- CC(=O)N1CCN(C(=O)CC2CSc3nc(C)cc(=O)n32)CC1 (stereo not drawn)
 : -5, -6
- COCCCNC(=O)c1ccc(CSc2nc(Cl)cc(N3CCC(Cc4ccccc4)CC3)n2)cc1
 : -3, 0

Next section
Below each compound: NPYLR7 agonist, NPYLR7 agonist max-min
- Cc1cn2c3c(=O)n(CCc4ccccc4)c(=O)n(C)c3nc2n1CC1CCCO1 (stereo not drawn)
 : -2, 23
- C=CCNc1cnn(Cc2ccccc2)c(=O)c1Cl
 : 9, 9
- COC(=O)C(=O)N1CCc2ccccc2C1c1ccc(F)cc1 (stereo not drawn)
 : 17, 6
- CC1CCCCC1NC(=O)CN1CCCN(c2ccccc2C#N)CC1 (stereo not drawn)
 : 2, -1
- COc1cccc2cc(-c3csc(Nc4ccc(Cl)cc4Cl)n3)c(=O)oc12
 : 3, -7
- Cc1csc(SCC(=O)NC2CC(=O)N(CC3CCCCC3)C2)n1 (stereo not drawn)
 : 5, 1
- CC(c1nnc(-c2cccs2)o1)N1CCN(c2ccccc2O)CC1 (stereo not drawn)
 : 0, -2
- C=CCNC(=O)c1ccc(-c2cccc(C(C)=O)c2)o1
 : 4, 2
- CCN(Cc1cccc(F)c1)C(=O)C1CCN(S(=O)(=O)c2ccc3c(c2)CCC3)CC1
 : 17, 7
- COCc1cc(N2CCN(Cc3ccc4c(c3)OCO4)CC2)nc(SCc2ccc(C(=O)NCc3ccccn3)o2)n1
 : 0, 7
- Cc1ccc2nc(N(CCCN3CCOCC3)C(=O)c3ccno3)sc2c1
 : 7, 23
- CCOC(=O)c1ccc(NC(=O)N2CCSC2c2ccccc2OCc2ccccc2)cc1 (stereo not drawn)
 : -1, 0
- CCOC(=O)c1c(NC(=O)c2c(-c3ccccc3Cl)noc2C)sc2c1CCCC2
 : 2, 1
- Cc1onc(-c2ccccc2)c1C(=O)Nc1cc2cc([N+](=O)[O-])ccc2oc1=O
 : -5, -9
- CCC(C)(CNC(=O)OC(C)(C)C)C(=O)NCC1CCCS1 (stereo not drawn)
 : -3, -3

Next section; the last two above are carried over.
Below each compound: NPYLR7 agonist, NPYLR7 agonist max-min
- Cc1onc(-c2ccccc2)c1C(=O)Nc1cc2cc([N+](=O)[O-])ccc2oc1=O
 : -5, -9
- CCC(C)(CNC(=O)OC(C)(C)C)C(=O)NCC1CCCS1 (stereo not drawn)
 : -3, -3
- Cc1ccc(C2c3cccn3CCCN2Cc2cccc(O)c2)cc1C (stereo not drawn)
 : 5, 19
- C=CCN1C(=O)NC(c2cccc(Cl)c2)C2=C1CN(CC(=O)NCCc1ccccn1)C2=O (stereo not drawn)
 : -1, 5
- Cc1cc(C)cc(NC(=O)c2ccc(NC(=O)C3C4CC5OC(=O)C3C5C4)cc2)c1 (stereo not drawn)
 : -16, -24
- COc1ccc(CN(Cc2ccco2)C(=O)c2ccccc2Cl)cc1OS(=O)(=O)c1ccc(F)cc1
 : 4, 10
- CCCC(C)(C)NC(=O)c1cc(C(C)C)[nH]n1
 : 7, 4
- CC(C)CN1CCC(c2nc3c([nH]2)CCCNC3=O)C1 (stereo not drawn)
 : 1, 4
- COC(=O)C(C(C)C)N1C(=O)C2C3C=CC(C3)C2C1=O (stereo not drawn)
 : -9, -9
- O=c1c2cnc3nc(C(F)(F)F)nn3c2ccn1-c1cc(Cl)ccc1Cl
 : 2, 5
- O=C(c1ccccc1OC(F)(F)F)N(Cc1ccco1)Cc1nc2cc(Cl)ccc2o1
 : 4, 2
- O=C(c1cnn2cc(CCO)cnc12)N1CCOC(c2ccc(F)cc2)C1 (stereo not drawn)
 : 7, 5
- CN(C)C1(CNC(=O)C2CN(Cc3ccccc3)CCO2)Cc2ccccc2C1 (stereo not drawn)
 : -1, -3
- O=C(Cn1nnc2sc3c(c2c1=O)CCCC3)N1CCCCC1
 : 3, -2
- O=C1C2C(c3ccccc3)C=CC(c3ccccc3)C2C(=O)N1CCO (stereo not drawn)
 : 4, 0
- COCCOCC(=O)Nc1cnc2n1CCCC2
 : -3, -6
- CC(C)c1cc(C2CCN(Cc3coc4ccccc4c3=O)CC2)[nH]n1
 : 20, 12

Below each compound: NPYLR7 agonist, NPYLR7 agonist max-min
- O=C(O)/C=C(\Oc1ccccc1Cl)C(=O)O
 : 12, 11
- Cc1ccc(NC2(C(=O)NC3C=CS(=O)(=O)C3)CCCCC2)cc1 (stereo not drawn)
 : -1, 1
- COc1cc(C)ccc1S(=O)(=O)N1CCC2(CCN(C)C2)CC1
 : 6, -3
- COCCOc1ccc(Br)cn1
 : -4, -8
- O=C(NNC(=O)c1cccn(Cc2ccc(F)cc2)c1=O)c1cccs1
 : -14, -19
- Cc1ccc(Cn2cnc3c(nnn3-c3cc(C)cc(C)c3)c2=O)cc1
 : -2, -4
- O=S(=O)(Cc1noc(C2CC2)n1)c1nc(-c2ccccc2)cs1
 : -5, i
- Cc1cccc2cc(CO)c(-c3ccc(C(C)N4CCOCC4)cc3)nc12 (stereo not drawn)
 : 0, -3
- COc1ccc(Nc2nc3c(C)cccn3c(=O)c2C=Nc2ccccc2)cc1
 : 0, 2
- O=C(C1=COc2ccc(Cl)cc2C1)N1CCCN(c2nc3ccccc3nc2-c2ccccc2)CC1
 : 6, 12
- COc1ccccc1C=CC(=O)c1nc2ccccc2s1
 : -3, -1
- Cc1cccc2sc(N3CCN(C(=O)C4=COCCO4)CC3)nc12
 : 1, 0
- O=C(CN1CN(c2ccccc2)C2(CCN(C(=O)c3ccc(Cl)cc3Cl)CC2)C1=O)N1CCCC1
 : -3, 7
- COC(=O)c1ccc(CN(CCN2CCOCC2)Cc2ccccc2OC)o1
 : -5, 4
- CC(C)c1ccccc1OCCOc1cccc2cccnc12
 : 11, 8

Below each compound: NPYLR7 agonist, NPYLR7 agonist max-min
- Cc1cc(OCCSc2nnc(-c3ccco3)n2CCC(N)=O)ccc1C(C)C
 : 7, 5
- O=C(CN1CCCN(c2ccc(C(F)(F)F)cn2)CC1)Nc1ccccc1
 : 7, 5
- Cc1cccc(OCCSc2nnc(N)s2)c1
 : 1, 1
- OC[C@H]1OC([S-])[C@H](O)[C@@H](O)[C@@H]1O.[Au+] (stereo partly drawn)
 : -8, -12
- COc1cccc(-c2noc3c2CN(CCCn2nnnc2C)CC3)c1
 : 0, 1
- O=S(=O)(NCC1CCN(CCN2CCOCC2)C1)c1ccccc1F (stereo not drawn)
 : 13, 9
- CCOc1ccccc1NC(=O)CSc1nnc(C)c2cnn(-c3ccccc3)c12
 : -9, -17
- COc1cccc2c1OCC(C(=O)N1CCC3(CCCO3)CC1)C2 (stereo not drawn)
 : 3, 1
- CCC(=O)N1CCC1(C)C(=O)Nc1cccc(OC)c1 (stereo not drawn)
 : -1, -3
- Cc1c(Cl)cccc1N1CN(C(=O)CN(Cc2ccccc2)C(=O)CC(C)C)CC1=O
 : -1, 0
- O=C(CN(Cc1ccccc1)C(=O)COCc1ccccc1)Nc1cc(-c2ccccc2)nn1-c1ccc(F)cc1
 : 3, 7
- CC(Cc1nsc(Nc2ccc(Cl)cc2)n1)=NCC1CCCO1 (stereo not drawn)
 : 4, 2
- CCN1CCN(CCC(=O)NCC2(O)CCCCCC2)CC1
 : 7, 8
- C=c1oc(C)cc1=C1NN=C(CCC(=O)NC(C)c2ccc(Cl)cc2)O1 (stereo not drawn)
 : 5, 3
- CCN(CC)Cc1cnc2c(C(=O)NCc3cn(C)nc3C)cnn2c1
 : 2, 0

Below each compound: NPYLR7 agonist, NPYLR7 agonist max-min
- CCN1CCC(CNC(=O)Nc2ccc(OC)cc2C)C1 (stereo not drawn)
 : 0, 0
- Cc1ccccc1-n1cc(CN2CCCC(N3CCCC3=O)C2)cn1 (stereo not drawn)
 : 6, 2
- Cc1[nH]n(-c2ccccc2)c(=O)c1C(C[N+](=O)[O-])c1ccc(F)cc1 (stereo not drawn)
 : 2, -2
- CC(Sc1nc(N)c(C#N)cc1C#N)c1cn(-c2ccccc2)nn1 (stereo not drawn)
 : -4, 21
- CC(C1CC1)N(C(=O)Nc1ccc(N2CCOC2=O)cc1)C1CC1 (stereo not drawn)
 : -3, -3
- C#CCOc1ccc(C2c3cc4c(cc3OC(=N)C2C#N)OCO4)cc1OC (stereo not drawn)
 : 0, -2
- CCCc1nc(N2CCN(C(=O)Cc3ccc(OC)cc3)CC2)c2cnn(-c3ccccc3)c2n1
 : 8, 8
- C=CCNC(=O)C(NC(=O)c1cccc(C)c1)C1CCN(C(=O)c2cccc(F)c2)CC1 (stereo not drawn)
 : -1, -6
- CN(C)CCN(Cc1cc(NC(=O)c2ccccc2Cl)ccc1N(C)C)C(=O)c1cccs1
 : 1, 8
- COc1ccc(C2CC(C)=NN2C=O)cc1OC (stereo not drawn)
 : 3, 0
- CCOC(=O)C1(CCc2ccccc2)CCN(Cc2nc3ccccc3[nH]2)CC1
 : 7, 5
- O=C(N=Nc1c(O)[nH]c2ccccc12)c1nc2ccccc2c(=O)[nH]1
 : 6, 3
- O=C(Cn1c(-c2nnco2)cc2ccccc21)N1CCOCC1
 : -3, -3
- CC(C)CCCC1CN(C(=O)c2ccc(=O)[nH]n2)CCO1 (stereo not drawn)
 : 2, 1
- C=CCc1ccccc1OCCN(C)C(=O)c1occc1C
 : -4, -9
- CCCS(=O)(=O)NCc1cccc(COC2CCCC2)c1
 : 7, 7

A portion of the library; rates above refer to the full screens.
